KCNQ2 pot: potentiators of rat KCNQ2 potassium channel. CHO-K1 KCNQ2, FluxOR thallium flux fluorescence; stronger effect = higher value. 310,000 tested, 0.54% active. O88943. B-score at 10 µM;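 active means fluorescence ratio B-score at least 3 SD of library B-scores, with initial fluorescence B-score within 3 SD, cut at about 5.3 in these data; same plate scores as AID 2156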;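 further: B-score of peak minus minimum over baseline fluorescence ratio after K+ and Tl+ stimulus; positive B-score means potentiation of KCNQ2 with more thallium influx and brighter signal; only the inactives scoring about 0 or higher are listed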
Target sequence (O88943 whole entry, looked up): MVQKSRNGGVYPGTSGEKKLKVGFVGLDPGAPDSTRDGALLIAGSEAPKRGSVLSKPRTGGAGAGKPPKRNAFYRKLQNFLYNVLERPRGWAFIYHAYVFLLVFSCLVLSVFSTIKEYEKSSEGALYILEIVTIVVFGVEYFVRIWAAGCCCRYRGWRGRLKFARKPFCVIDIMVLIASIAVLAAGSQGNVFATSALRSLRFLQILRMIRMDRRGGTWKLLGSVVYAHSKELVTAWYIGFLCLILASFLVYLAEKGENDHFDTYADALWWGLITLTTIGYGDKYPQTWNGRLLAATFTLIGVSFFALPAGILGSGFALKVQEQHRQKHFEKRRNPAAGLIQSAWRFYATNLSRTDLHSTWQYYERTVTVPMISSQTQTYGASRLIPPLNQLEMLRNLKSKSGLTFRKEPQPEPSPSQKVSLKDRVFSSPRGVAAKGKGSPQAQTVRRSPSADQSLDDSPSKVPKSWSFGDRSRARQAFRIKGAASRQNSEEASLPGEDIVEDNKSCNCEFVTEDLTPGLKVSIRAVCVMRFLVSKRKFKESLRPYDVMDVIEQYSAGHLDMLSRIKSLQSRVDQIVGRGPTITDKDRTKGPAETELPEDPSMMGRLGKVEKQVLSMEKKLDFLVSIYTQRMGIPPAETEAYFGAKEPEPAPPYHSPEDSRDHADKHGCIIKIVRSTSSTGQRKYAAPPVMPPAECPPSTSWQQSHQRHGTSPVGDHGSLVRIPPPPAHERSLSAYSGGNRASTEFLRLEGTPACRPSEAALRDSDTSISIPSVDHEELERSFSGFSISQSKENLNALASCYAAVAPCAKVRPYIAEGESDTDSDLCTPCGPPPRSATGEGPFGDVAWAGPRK
KCNQ2 pot baseline: also measured in KCNQ2 pot; calls as there; B-score; compound at 10 µM; measured here: initial fluorescence intensity artifact check;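 brightness before thallium and not channel activity; 0 = typical well and far values either way flag optical interference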
* marks the source's active call; other numbers are inactive results.

Each structure is followed by: KCNQ2 pot	KCNQ2 pot baseline
Cc1cccc(N2CC(C(=O)Nc3nnc(SCC(=O)Nc4cc(C)on4)s3)CC2=O)c1 (configuration not stated)
  2.35	-0.75
O=C1CSC(=Nc2cc(Cl)ccc2Cl)N1
  1.39	0.25
CC1CCN(S(=O)(=O)c2ccc(C(=O)N3CCOCC3)cc2)CC1
  1.25	-1.52
COc1ccccc1CNC(=O)CCc1nc2ccccc2c(=O)[nH]1
  0.68	0.48
Cc1cc(C)nc(OC(C(=O)O)C(OCCC(C)C)(c2ccccc2)c2ccccc2)n1 (configuration not stated)
  3.67	-0.69
O=C(O)c1cc(-c2ccc(Cl)s2)nc2ccccc12
  0.02	-1.44
CSCC(C)N1CCC(Oc2cccc(C(=O)NCc3ccccn3)c2)CC1 (configuration not stated)
  0.41	2.15
CCN1CCN(c2nc(C)c3c(n2)CC(C)CC3=O)CC1 (configuration not stated)
  0.57	0.02
CC1CCCC(C)N1CC(O)COC1CCC(C(C)(C)C)CC1 (configuration not stated)
  0.29	-0.67
COc1ccc(N2CCN(C3CCCN(Cc4cccc(OC)c4)C3)CC2)cc1 (configuration not stated)
  0.31	-0.4

The results go on:
Each structure is followed by: KCNQ2 pot	KCNQ2 pot baseline
CC1Cc2ccccc2N1CC(=O)Nc1ccc(S(=O)(=O)N(C)C)cc1 (configuration not stated)
  1.91	-1.39
CN(C)CCNC(NC(=O)c1cccs1)C(Cl)(Cl)Cl (configuration not stated)
  1.19	-0.81
Cc1ccc(C)c(NC(=O)c2ccccc2O)c1
  0.05	0
CCC(NC(=O)C1CCCC1)c1ccc(C)cc1 (configuration not stated)
  0.51	0.98
CCCCn1c(N)c(N(CCOC)C(=O)c2cccc(S(=O)(=O)N3CCCCC3)c2)c(=O)[nH]c1=O
  0.29	0.61
COc1ccccc1NC(=O)C(C)OC(=O)c1nc2nc(C)cc(C)n2n1 (configuration not stated)
  0.53	-1.12
O=C(Nc1nccs1)c1ccc(Br)s1
  1.2	1.98
Cc1cccc(OCCCC(=O)Nc2ccc(N3CCCCC3)cc2)c1C
  0.51	-0.91
O=C(O)c1cc2c(ccc3ccccc32)[nH]1
  0.03	0.42
N#CC1=C(O)C(c2ccccc2)n2c1nc(=O)c1ccccc12 (configuration not stated)
  0.09	-1.63

Additional results.
Each structure is followed by: KCNQ2 pot	KCNQ2 pot baseline
CC(C)CCOc1ccc(C(=O)NCC(c2ccco2)N(C)C)cc1 (configuration not stated)
  0.73	0.55
CCN(CC(=O)Nc1ccc(NC(C)=O)cc1)C(=O)COc1ccc2ccccc2c1
  0.96	-0.04
Cc1sc(NC(=O)CCCC(=O)O)c(C#N)c1C
  0.53	-0.03
Cc1ccc(C2NC(=S)NC3=C2N2CCC3CC2)cc1 (configuration not stated)
  0.7	0.1
O=C(N1CCCCCC1)N1CCN(C(=O)N2CCCCC2)CC1
  0.83	-0.02
CC(C)(C)c1ccc(C(=O)NNC(=O)CCC(=O)Nc2ccccc2)cc1
  0.55	0.03
S=C(NCCc1ccc(Cl)cc1)Nc1ccc(Cl)cc1Cl
  0.02	0.53
c1ccc2c(c1)CCN(c1ncnc3nc[nH]c13)C2
  0.26	0.58
CCCN(CCC)CC(O)COc1ccccc1C(=O)Nc1ccccc1 (configuration not stated)
  0.76	-0.47
Cc1nn(CC(=O)Nc2ccc3c(c2)nc2n3CCOC2)c(=O)c2ccccc12
  0.37	-0.91

In a second layout: 4 of the compounds above
mol | KCNQ2 pot | KCNQ2 pot baseline
O=C1CSC(=Nc2cc(Cl)ccc2Cl)N1 | 1.39 | 0.25
Cc1nn(CC(=O)Nc2ccc3c(c2)nc2n3CCOC2)c(=O)c2ccccc12 | 0.37 | -0.91
O=C(Nc1nccs1)c1ccc(Br)s1 | 1.2 | 1.98
CC1CCCC(C)N1CC(O)COC1CCC(C(C)(C)C)CC1 (configuration not stated) | 0.29 | -0.67

Remaining list, next part:
Each structure is followed by: KCNQ2 pot	KCNQ2 pot baseline
O=c1c2ccccc2c(C=Nc2ccc(S(=O)(=O)Nc3ncccn3)cc2)c(O)n1-c1cccc(Cl)c1
  0.82	0.65
Nn1cnnc1SCC(=O)Nc1ccc2c(c1)OCCO2
  0.01	-1.39
COC(=O)[C@H](CCSC)NS(=O)(=O)c1ccccc1Br
  1.09	1.01
O=C(NCc1cccs1)C1CCN(c2nccs2)CC1
  0.1	-1.58
O=C(Cn1cnc([N+](=O)[O-])c1)Nc1ccc(F)c(Cl)c1
  1	2.15
O=C(c1ccc(Cl)cc1)N1CCN(CCOc2ccccc2)CC1
  1.05	-0.57
COc1ccc(COc2ncnc3ccc(Br)cc23)cc1F
  1.62	1.17
CCOC(=O)N1CCN(C(=O)/C=C/c2ccc(OC)cc2)CC1
  1.42	0.18
CCOc1cccc(/C=N/NC(=S)Nc2cc(S(=O)(=O)N3CCOCC3)ccc2N2CCOCC2)c1O
  0.33	-0.16
O=C(COC(=O)c1cccc(S(=O)(=O)N2CCc3ccccc32)c1)NC1CCS(=O)(=O)C1 (configuration not stated)
  0.28	2.93

The list continues.
Each structure is followed by: KCNQ2 pot	KCNQ2 pot baseline
COC(=O)c1ccc(Cn2c(C)cc(C)[n+]2C)o1
  0.75	0.02
Cc1c(C(=O)Nc2ccncc2)sc2nc(-c3ccccc3)cn12
  0.54	-0.06
Cc1cc(NC(=O)c2noc3c2CCCC3)nn1Cc1ccc(Cl)cc1
  0.24	-1
Cc1cccn2c(=O)nc(SCC(=O)N3CC(C)OC(C)C3)nc12 (configuration not stated)
  2.22	-0.63
CSc1nnc(C)c(=O)n1COC(=O)COc1ccccc1C
  0.92	-0.03
Cc1ccc(OCC(=O)Nc2ccc(C)c(S(=O)(=O)N3CCCCCC3)c2)c([N+](=O)[O-])n1
  0.91	0.06
CC(C)n1cnc2c(Nc3cccc(F)c3)nc(NCCO)nc21
  0.67	-0.7
NC1=NC2(CCCCC2)N=C(Nc2ccc(F)cc2F)N1
  2.24	1.1
CCOC(=O)C(C(=O)OCC)C1CS(=O)(=O)CC1C(C(=O)OCC)C(=O)OCC (configuration not stated)
  0.22	0.11
C[C@H]1CN(Cc2ccccc2)C(=O)[C@@H]1CC(=O)NCc1ccccc1
  0.14	3.05

Next part.
Each structure is followed by: KCNQ2 pot	KCNQ2 pot baseline
CCOC(=O)N1CCC(NC(=O)C2CCN(C(=O)N3CCOc4ccccc43)CC2)CC1
  1.44	-4.74
CC(=O)c1cc(C#N)c(N2CCCCC2)nc1C
  0.42	0.79
CCCCCCC1CCC(C(=O)N2CCOCC2)CC1 (configuration not stated)
  0.01	-0.8
Cc1noc(C)c1COc1ccc(C(=O)OCC(=O)c2ccc3c(c2)OCCO3)cc1
  0.61	0
C1CN(CC23CC4CC(CC(C4)C2)C3)CCO1
  1.54	-1.72
CC1(C)NC(=O)N(CC(=O)N2CCN(c3cccc(C(F)(F)F)c3)CC2)C1=O
  1.88	0.56
O=C(OCC(=O)N1CCN(C(=O)c2ccco2)CC1)c1ccccc1C(=O)c1ccc(Cl)cc1
  0.6	1.61
Cc1ccc(N2C(=O)CC(N3CCN(S(=O)(=O)c4ccccc4)CC3)C2=O)c(C)c1 (configuration not stated)
  0.7	-0.66
Cc1cc(C)cc(NC(=O)Nc2ccc(-n3ccc(C(F)(F)F)n3)cc2)c1
  0.61	-1.64
COC(=O)[C@H](C)NC(=O)NC1CCN(Cc2ccccc2)CC1
  0.12	2.18

Next structures
Each structure is followed by: KCNQ2 pot	KCNQ2 pot baseline
O=C(NN1CCOCC1)c1cccc(Cl)c1
  0.05	-1
O=C(CCn1ccc2cc(S(=O)(=O)N3CCCC3)ccc21)NCc1cccc(F)c1
  1.47	0.37
Cc1ccc(NC(=O)C2C3C=CC4(O3)C2C(=O)N(CCCN2CCCC(C)C2)C4C(=O)NC2CCCCC2)cc1 (configuration not stated)
  0.04	-0.65
CN(CC(=O)Nc1ccc(F)cc1)C(=O)COC(=O)/C=C/c1cccs1
  1.71	-2.08
CC(NC(=O)CSc1ncnc2nc[nH]c12)c1ccccc1 (configuration not stated)
  0.62	-0.77
O=c1[nH]c2ccccc2n1CCCSc1cnc2ccccc2n1
  1.71	-0.08
O=C1NN(c2cccc(Br)c2)C(=O)/C1=C/c1ccc(-c2cc([N+](=O)[O-])ccc2O)o1
  0.28	-1.23
O=C(O)C(=O)/C(=C\c1ccc([N+](=O)[O-])cc1)c1ccc2ccccc2n1
  0.04	0.29
CCOC(=O)Cc1csc(NC(=O)c2ccoc2C)n1
  0.03	-2.25
COc1ccc(OC)c(-n2c(Cn3c(-c4ccccn4)nc4ccccc43)n[nH]c2=S)c1
  0.24	-0.37

More compounds follow.
Each structure is followed by: KCNQ2 pot	KCNQ2 pot baseline
CN(C)S(=O)(=O)N1CCC(Oc2ccc(C(=O)NCC(C)(C)CO)cc2)CC1
  0.17	-0.68
COc1ccc(OC(C)C(=O)N2CCC(C)CC2)cc1 (configuration not stated)
  0.78	0.17
Cc1ccc(CNc2c(C=O)c(=O)[nH]c3ccccc23)cc1
  0.01	-0.76
Cc1nc2ccccc2c(=O)n1/N=C/c1ccc(O)cc1O
  0.71	0.07
CC(C)(C)NC(=O)C1CCN(S(=O)(=O)c2cccc3nsnc23)CC1
  0.71	-0.21
COc1ccc(C2NC(=O)NC(C)=C2C(=O)Nc2cc(C)ccc2C)cc1OC (configuration not stated)
  0.45	0.36
CCCCNC(=O)c1cnc2n(c1=O)CCS2
  1.64	2.68
O=C(O)c1ccc(C(=O)O)c(C(=O)c2ccccc2)c1
  0.01	-2.29
CCCc1[nH]c2ccc(C#N)cc2c1CCC
  2.15	-0.31
Cn1c(SCC(=O)Nc2cc([N+](=O)[O-])ccc2F)nnc1C(F)(F)F
  1.55	-0.76

(continued)
Each structure is followed by: KCNQ2 pot	KCNQ2 pot baseline
Cc1cc(C(=O)CCC(=O)N2CCN(S(=O)(=O)c3ccccc3)CC2)c(C)s1
  6.23*	-1.76*
Nc1cccc(Oc2ccc([N+](=O)[O-])cc2)c1
  0.48	0.76
O=C(c1cn[nH]c1)c1cc(F)ccc1O
  0.38	-0.01
COc1ccc(NC(=O)CSc2nncn2C)cc1
  0.13	-1.83
Cc1ccc(S(=O)(=O)N(CC(=O)N2CCC(C(N)=O)CC2)c2cccc(C(F)(F)F)c2)cc1
  0.51	-1.58
O=C(NCc1ccncc1)c1cc2ccccc2nc1Cl
  1	-0.27
CC(C)c1ccc(OCc2ccc(C(=O)NN3CCN(C)CC3)o2)cc1
  1.41	0.43
CC(C)(C)OC(=O)N[C@@H](COCc1ccccc1)C(=O)N[C@@H](CO)[C@H](O)[C@@H]1C[C@@H]1C(=O)N1CCCC1
  0.6	1.52
CCOC(=O)C1CCCN(S(=O)(=O)CCNC(=O)c2ccc3c(c2)OCO3)C1 (configuration not stated)
  1.99	-0.7
COc1ccc(C)cc1NC(=O)CSc1ccc(-c2sc(C)nc2C)nn1
  0.77	-1

Remaining list, next part
Each structure is followed by: KCNQ2 pot	KCNQ2 pot baseline
CCc1nccn1S(=O)(=O)c1cc(Br)ccc1OC
  1.05	1.22
O=C(Cn1nc(Cc2cccnc2)c2ccccc2c1=O)Nc1ccccc1F
  0.53	-0.91
O=C(NC1(C(F)(F)F)C(=O)Nc2c1c(=O)[nH]c(=O)n2Cc1ccccc1)c1ccc(Cl)cc1Cl (configuration not stated)
  0.09	2.32
O=C(NC(=S)N1CCN(c2ccc(F)cc2)CC1)c1cccs1
  1	0.75
COc1ccc(NC(=S)Nc2cnc3ccccc3c2)c(OC)c1
  2.9	-0.55
Cc1cc(C)n(CCCNC(=O)CCNS(=O)(=O)c2ccccc2C(F)(F)F)n1
  1.75	-0.5
N#CCCCSc1nnc(Cc2ccc3c(c2)OCO3)o1
  0.41	-0.91
O=C(c1cc(-c2ccc(Br)cc2)on1)N1CCOCC1
  0.05	-1.24
O=C(Nc1ccc(NC(=O)C23CC4CC(CC(C4)C2)C3)cn1)c1ccco1
  1.32	-1.42
COC(=O)c1ccc(NC(=O)CN2CCN(S(=O)(=O)c3cc(Cl)ccc3OC)CC2)cc1
  1.29	-1.17

Additional results:
Each structure is followed by: KCNQ2 pot	KCNQ2 pot baseline
Cc1noc(C)c1C(c1ccccc1)S(=O)(=O)c1ccccc1 (configuration not stated)
  2.86	-1.28
O=c1[nH]cnc2c1oc1ccccc12
  0.04	-0.44
Cc1sc2nc(C3CC3)nc(N3CCN(S(=O)(=O)c4ccc(F)cc4)CC3)c2c1C
  0.31	1.89
Cn1c(=O)c2c(nc(N3CCOCC3)n2C)n(C)c1=O
  0.02	-0.12
Cc1ccc(NS(=O)(=O)c2ccc3c(c2)NC(=O)CCS3)cc1F
  1.17	-0.34
O=C(Cc1ccc([N+](=O)[O-])cc1)NC1CCCCCC1
  0.03	-0.93
CCOC(=O)c1sc(NC(=O)COC(=O)c2ccco2)nc1C
  0.03	-0.65
CSc1ncccc1C(=O)OCc1ccccc1F
  0.7	0.2
Cc1cccc(NC(=O)Cn2cnc3c(oc4ccccc43)c2=O)c1C
  0.8	-2.22
Cc1[nH]nc(-c2ccc(O)cc2O)c1Oc1ccccc1
  4.04	-0.13

(more compounds)
Each structure is followed by: KCNQ2 pot	KCNQ2 pot baseline
Cc1ccoc1C(=O)Nc1ccc(CC(=O)O)cc1
  0.52	-1.1
O=C(OC1CCCCC1=O)c1cccc(S(=O)(=O)N2CCCCC2)c1 (configuration not stated)
  0.65	-0.27
NC(=O)CN(Cc1ccccc1)S(=O)(=O)c1ccc2c(c1)OCCO2
  0.32	3.19
Cc1[nH][nH]c(=O)c1N=Nc1ccc(Br)c(Cl)c1
  0.8	-1.99
N#C/C(=N\Nc1ccc(F)cc1)C(=N)N1CCCCCC1
  0.32	0.85

Record cards, from the list above:
NC(=O)CN(Cc1ccccc1)S(=O)(=O)c1ccc2c(c1)OCCO2 in the list: KCNQ2 pot: 0.32; KCNQ2 pot baseline: 3.19
O=C(OC1CCCCC1=O)c1cccc(S(=O)(=O)N2CCCCC2)c1 (configuration not stated) in the list: KCNQ2 pot: 0.65; KCNQ2 pot baseline: -0.27

Screening results: PubChem, Johns Hopkins Ion Channel Center

A portion of the library (hit frequency here may not be typical).
